# Screens (PubChem)
# T cruzi inh: T. cruzi replication inhibition; T. cruzi beta-gal in NIH3T3, luminescence, 90 h; inhibition, % (test concentration not listed); hit rate 1.4% among 300,000; AID 1885;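 active = mean inhibition across valid replicates above about 55%, limit read from the data; inconclusive = mean below that limit but half or more replicates reach it; inactive = mean below it, under half of replicates reach it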;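 also: signal also drops with host cell toxicity which is not excluded here; 0% = plate median of DMSO wells and 100% = zero luminescence signal; higher percent means less beta-gal luminescence so fewer parasites; stock transfer was 50 nL into about 50 µL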
# MLL AF4-AF9 inh: blocks AF4 peptide binding to human AF9 | AlphaScreen, biotin-AF4 peptide binding to FLAG-AF9 | inhibition, % at 10 µM | hit rate 0.47% among 350,000;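 active = every replicate reaching a set inhibition limit, whatever the replicate mean, cut at about 25% in these data; inconclusive = mean inhibition reaches that limit but some replicates miss it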;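 also: 0% = plate neutral control median and 100% = total signal loss; the record names both 10 and 1 µM as test concentration; the first replicate is given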
# RanGTP-Impb inh: inhibitors of RanGTP-importin-beta interaction, primary screen, biochemical, FRET, CFP-Ran, YFP-importin-beta, homogeneous. AID 2216. hit rate 1.1% among 300,000. cell-free CFP-Ran/YFP-importin-beta FRET ratio. inhibition, % (test concentration not listed);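 active = most replicates above 15%; inconclusive = exactly half above 15%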;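 also: 0% = DMSO wells and 100% = Ran loaded with GDP instead of GTP; wells of about 40 µL received 100 nL stock; the first replicate is given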
# Beta apoptosis: blocks beta cell apoptosis. hit rate 0.8% among 300,000. protection from apoptosis, % (test concentration not listed). AID 435005. INS-1E cytokine-induced death, ATP luminescence, 48 h; percent of positive-control rescue, neutral wells zero;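 active = all replicates at 75% or more, or half of them and the mean; inconclusive = half reach 75% but not the mean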;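 also: 0% = cytokine-treated negative control wells and 100% = positive control rescue; higher means more ATP so stronger rescue from cytokine killing; wells of about 40 µL received 100 nL stock; the first replicate is given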
# Calb FLC: affects C. albicans growth with fluconazole; C. albicans CaCi-2 (fluconazole-resistant clinical isolate) + fluconazole, Alamar Blue growth, 48 h; growth inhibition, % (test concentration not listed); hit rate 0.57% among 300,000; AID 1979;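 active = most replicates above 75%; inconclusive = exactly half above 75%; inactive = most below 75%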;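 also: all wells also contain fluconazole at 8 µg/ml as a sub-toxic cotreatment; 0% = median of DMSO wells and 100% = median of geldanamycin control wells; wells of about 8 µL received 7.5 nL stock; the first replicate is given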
# Vif A3G: HIV-1 Vif–A3G interaction blockers – biochemical, TR-FRET, GST-Vif 1-94, biotin-A3G peptide, dose response retest, primary screen (AID 1117319); hit rate 0.57% among 260,000; TR-FRET GST-Vif / biotin-A3G peptide binding; higher % means a stronger effect; test concentration not given here; strong numbers were not always called active; inhibition, %; hits with a dose series show IC50 in µM;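 active = above the screen mean plus three standard deviations and confirmed in dose response; inconclusive = results disagree or hit not tested in dose response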;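 also: Vif residues 1-94 fused to GST binding biotinylated APOBEC3G peptide 110-148; 0% = full assay without inhibitor and 100% = GST in place of GST-Vif; retest series ran down from 100 µM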
# A1 inh: inhibitors of the anti-apoptotic protein A1, read as caspase activation; MEF A1-2A-BIM cells, Caspase-Glo 3/7 luminescence, 3 h; percent of clofoctol response, vehicle zero; caspase activation, % (no concentration beside the values); hit rate 0.066% among 330,000;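 active = over half of replicate activation scores above 10%, or exactly half above 10 with the replicate mean above 10; inconclusive = replicate mean below 10 yet half the replicates above 10; inactive = over half of replicates below 10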;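 also: wells of about 30 µL received 50 nL stock; many hits fall short of the cut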
# LANA-H2B inh: blocks KSHV LANA binding to histone H2A/H2B; Q9QR71; cell-free LANA-H2A/H2B peptide, fluorescence polarization; inhibition, % (test concentration not listed); hit rate 0.6% among 320,000; in the data active = inhibition mostly above about 10%, no sharp cut-off; inactive = mostly below about 6.7%;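 also: stock transfer was 7.5 nL into about 10 µL; 0% = median of vehicle wells and 100% = median of positive control wells; one replicate is shown; the record names a cut of 25% in any replicate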
# Target sequence (Q9QR71 whole entry, looked up): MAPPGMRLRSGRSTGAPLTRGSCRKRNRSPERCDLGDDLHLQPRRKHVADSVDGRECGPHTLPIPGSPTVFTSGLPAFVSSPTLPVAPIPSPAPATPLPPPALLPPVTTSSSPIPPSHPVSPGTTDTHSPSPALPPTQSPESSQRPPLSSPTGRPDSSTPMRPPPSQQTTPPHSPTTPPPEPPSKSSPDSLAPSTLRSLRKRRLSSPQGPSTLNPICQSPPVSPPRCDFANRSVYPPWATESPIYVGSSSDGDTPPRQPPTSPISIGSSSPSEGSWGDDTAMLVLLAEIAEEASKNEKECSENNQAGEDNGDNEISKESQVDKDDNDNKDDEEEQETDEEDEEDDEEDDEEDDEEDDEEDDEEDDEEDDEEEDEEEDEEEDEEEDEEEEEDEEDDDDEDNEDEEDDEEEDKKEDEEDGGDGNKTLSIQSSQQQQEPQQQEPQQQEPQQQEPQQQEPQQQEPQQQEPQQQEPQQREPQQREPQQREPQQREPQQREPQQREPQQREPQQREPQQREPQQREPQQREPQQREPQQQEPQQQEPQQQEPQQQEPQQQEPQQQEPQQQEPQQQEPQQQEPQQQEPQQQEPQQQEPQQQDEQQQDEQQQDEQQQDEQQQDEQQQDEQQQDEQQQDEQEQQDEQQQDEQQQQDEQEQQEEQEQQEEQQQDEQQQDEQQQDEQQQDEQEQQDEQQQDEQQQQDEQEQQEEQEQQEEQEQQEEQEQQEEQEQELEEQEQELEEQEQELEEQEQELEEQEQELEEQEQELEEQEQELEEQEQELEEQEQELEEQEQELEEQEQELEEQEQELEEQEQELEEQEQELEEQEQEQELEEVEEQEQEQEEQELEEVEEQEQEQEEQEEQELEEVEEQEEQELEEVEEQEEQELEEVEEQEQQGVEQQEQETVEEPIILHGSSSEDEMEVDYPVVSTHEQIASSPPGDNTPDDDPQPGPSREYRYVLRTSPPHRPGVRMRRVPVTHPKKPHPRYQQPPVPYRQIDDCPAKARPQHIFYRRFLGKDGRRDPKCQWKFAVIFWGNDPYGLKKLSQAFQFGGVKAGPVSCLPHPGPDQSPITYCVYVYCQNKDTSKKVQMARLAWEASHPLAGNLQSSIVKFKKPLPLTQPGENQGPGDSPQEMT
# An asterisk follows results filed as active; i = inactive; ? = inconclusive; . = no result given; & = joins results of further samples.
Molecule	T cruzi inh	MLL AF4-AF9 inh	RanGTP-Impb inh	Beta apoptosis	Calb FLC	Vif A3G	A1 inh	LANA-H2B inh
Cc1cc(C(=O)N2CCCC(CNS(=O)(=O)c3cccs3)C2)nn1C (stereo not given)	-12.7	-0.6	-5.4	-5.5	-1.6	-2.3%	-0.2	-4.3
COc1ccc(CCC(C)NCc2ccccc2OC)cc1 (stereo not given)	18.5	-1.4	-0.4	-9.6	-10.2	.	1.8	-7.0
Cc1ccc(NC(=O)C2CCCN(S(=O)(=O)c3cccc4cccnc34)C2)cc1 (stereo not given)	-0.9	-0.9	-4.7	-5.1	-4.6	3.6%	1.2	0.9
Cc1ccc(NC(=O)COc2cccnc2[N+](=O)[O-])cc1S(=O)(=O)N1CCCCC1	3.0	8.0	2.8	-8.7	-1.6	.	0.4	1.9
O=C(CN1C(=O)S/C(=C\c2ccc(F)cc2)C1=O)NC1C=CS(=O)(=O)C1 (stereo not given)	-41.2	0.5	15.5*	-3.8	1.9	-4.1%	-0.6	1.3
Cc1nn(-c2ccc(F)cc2)c(Cl)c1/C=C/C(=O)OCC(=O)Nc1ccc(F)cc1F	-7.2	.	-1.4	2.2	-7.6	7.5%	0.5	3.8
CC(C)c1ccc(NC2CCCN(C(=O)CCn3cnnn3)C2)cc1 (stereo not given)	9.5	2.1	1.1	-0.9	7.0	.	0.3	1.4
Cc1cc(S(=O)(=O)NC2CC(C)(C)NC(C)(C)C2)c(Cl)cc1Cl	-7.1	2.6	0.3	7.1	-6.6	.	-0.2	-39.9
CS(=O)(=O)ON=C1CCN(S(=O)(=O)c2ccccc2)CC1	-4.8	0.6	1.6	-4.8	-4.5	-6.5%	0.1	-0.1
COc1cccc(C(=O)Nc2ccc(NC(C)=O)cc2)c1	-6.1	.	1.8	-5.1	33.3	-0.9%	-4.1	41.0*
CC(=O)Cc1nsc(NC(=O)c2c(-c3ccccc3Cl)noc2C)n1	-1.0	.	-4.7	-2.5	1.7	24.2%	0.4	9.3
O=C(NCC(=O)N1CC=C(c2ccccc2)CC1)c1ccc(OC(F)F)cc1	.	0.1	.	12.7	.	.	1.2	0.1
CCOc1cc(CNn2cnnc2)cc(Cl)c1OCC(=O)NC(C)(C)C	-7.1	-1.7	?	-1.6	-1.3	2.6%	-0.4	5.0
Cc1ccccc1C(=O)c1ccc2c(c1)n(C)c(=O)n2C	8.2	.	0.0	-7.9	13.1	6.3%	-0.5	-1.5
C/C(=N\NC(=O)CNc1cccc(Cl)c1C)c1cccs1	-4.7	-2.1	5.4	.	10.7	15.8%	0.8	-2.3
CNC(=O)CN1C(=O)COc2ccc(S(=O)(=O)N3CCCCCC3)cc21	-20.3	0.7	-1.8	-4.9	-7.4	.	-1.7	-0.3
CC1CCCCN1C(=S)Nc1ccc2nc3n(c(=O)c2c1)CCCCC3 (stereo not given)	-9.5	.	-2.2	-12.0	-19.4	-3.3%	0.1	4.3
CN1CCN(c2ccc(CNS(=O)(=O)Cc3cccc(C(F)(F)F)c3)cc2)CC1	-2.6	.	3.4	86.5*	10.2	-9.7%	-0.4	-0.8
COc1ccc(C(C)=O)c(OC(=O)c2ccco2)c1	4.5	.	2.3	-1.0	24.8	-11.0%	0.3	2.0
CN1C(CC(=O)c2ccccc2)CCCC1CC(O)c1ccccc1 (stereo not given)	18.9	1.0	-2.3	-3.4	-8.7	-1.9%	-0.6	1.6
COc1ccc(/C=C/C(=O)NCCCc2ccccc2)cc1OC	2.7	.	-1.9	0.7	4.3	-6.8%	0.4	-5.1
COc1ccc(NC(=O)C2C(c3ccccc3)C2(Cl)Cl)cc1 (stereo not given)	5.3	-2.5	-2.7	3.5	1.0	1.1%	-0.7	0.5
Cc1nc(CCN2C(=O)c3ccccc3C2=O)n[nH]1	-4.5	.	1.0	-3.7	1.0	1.3%	0.5	-1.8
COc1cc(/C=N/NC(=O)c2cc3c(ccc4ccccc43)o2)cc(OC)c1O	21.7	-2.1	-0.1	18.4	27.8	.	0.1	0.8
C=CCn1c2ccccc2c2nnc(SCCN3CCCCC3)nc21	46.1	0.6	1.3	4.4	-94.5	.	-0.1	1.7
Cc1ccnc(NC(=O)CN(C)S(=O)(=O)c2cccc3nsnc23)c1	-4.0	.	1.0	-11.4	-5.8	20.0%	-0.4	0.1
O=C(NCC(c1cccs1)N1CCOCC1)c1cc(-c2ccccn2)nc2ccccc12 (stereo not given)	-9.3	3.7	-2.5	-0.5	4.5	1.5%	0.6	-6.0
COc1ccc(CCNC(=O)COc2ccc3c(C)cc(=O)oc3c2)cc1OC	-3.2	0.0	-0.6	.	4.6	.	-0.2	5.2
COc1cccc(C(c2nnnn2Cc2ccccc2)N2CCN(C(=O)c3ccco3)CC2)c1OC (stereo not given)	21.7	.	-4.0	-1.5	-9.0	1.4%&-2.7%	-0.5	-4.6
Cc1c(Cl)cccc1NS(=O)(=O)c1cn(C)c(=O)n(C)c1=O	-5.7	-3.9	-3.2	-2.1	-11.2	.	0.5	-2.8
COc1ccc([N+](=O)[O-])cc1NC(=S)NC(C)=O	0.2	-0.8	2.2	-8.6	5.1	4.4%	-0.4	-7.0
Cc1ccc(/C=N/n2c(-c3cccnc3)n[nH]c2=S)o1	-1.5	-1.9	?	.	0.7	-6.4%	-0.2	-4.3
CCCCCn1c(=S)[nH]c2cc(C(=O)N3CCN(C(=O)OCC)CC3)ccc2c1=O	12.9	-1.1	1.7	1.8	15.0	-3.1%	1.4	2.3
COc1ccc(CCNC(=O)COC(=O)c2ccc(C)s2)cc1OC	.	0.0	.	-2.8	.	-1.5%	1.2	-1.3
O=C(NCCC1=CCCCC1)C1CCC(CNc2nc(=S)[nH]c3ccccc23)CC1 (stereo not given)	-12.6	-1.3	-0.4	44.4	-12.9	-0.9%	-0.5	i
Cc1cc(NC(=O)CSc2ncnc3sc(C)c(C)c23)no1	-6.8	-0.6	-0.9	0.9	-8.7	-6.4%	0.5	0.8
Cc1cc(OCC(=O)NCC(c2ccc(F)cc2)N2CCOCC2)ccc1Cl (stereo not given)	.	1.5	.	-1.8	.	-5.2%	1.0	-3.3
CCOC(=O)C1=C(C)NC(=O)NC1c1ccc(Br)o1 (stereo not given)	-13.4	.	-1.0	-7.2	9.2	.	0.3	0.8
COc1ccc(-c2cnn(-c3ccccc3)c2N)cc1OC	-4.2	.	4.0	1.0	4.3	2.3%	0.3	-3.5
O=C(COC(=O)c1cc(S(=O)(=O)N2CCOCC2)ccc1Cl)NCCc1ccccc1	.	-3.3	.	6.4	.	4.4%	-1.0	-7.1
NC(=O)CC(NC(=O)Cc1ccc(Cl)cc1)c1ccc(NCCCN2CCCC2=O)c([N+](=O)[O-])c1 (stereo not given)	-4.0	-0.5	-3.1	-9.8	-7.9	.	?	1.6
O=C(NCCC(=O)N1CCNC1=O)OCc1ccccc1	-0.1	.	2.1	.	21.1	6.3%	-0.2	-0.8
CCc1cc(C(=O)N2CCCC(C(=O)c3ccc(Oc4ccccc4)cc3)C2)n(C)n1 (stereo not given)	-15.7	3.9	-0.6	0.3	-0.5	.	-2.0	-2.3
O=S(=O)(NCCc1ccccc1)c1ccc(-n2cnnn2)cc1	5.6	0.9	4.7	-1.2	-2.2	.	1.0	-1.3
Cn1c(=O)c2c([nH]c(=S)n2CCCc2ccccc2)n(C)c1=O	1.3	-5.7	3.3	-8.0	-1.3	.	0.5	0.1
Cc1nn(-c2ccccc2)c2nc(-c3cccs3)cc(C(=O)NN)c12	-5.7	2.8	3.8	8.0	?	-6.2%	-1.6	-5.0
C=C1CCN([C@@H](CC(C)C)C(=O)NCCCc2ccccc2)S(=O)(=O)c2ccccc21	24.3	-1.1	2.8	9.1	1.9	.	-1.8	3.0
S=C1NC(c2ccccc2)=NCN1c1ccc(Br)cc1	-1.7	-28.2	-3.9	-2.9	?	6.0%	-0.4	-0.5
CCCCN1C(=O)C(NC(=O)C2CC2)(C(F)(F)F)C2=C1CC(C)(C)CC2=O (stereo not given)	-11.9	.	-15.0	1.8	-7.5	-6.8%	0.7	10.2
Cc1onc(-c2ccccc2)c1C(=O)N1CCN(S(=O)(=O)c2ccc(Cl)cc2)CC1	5.0	2.5	3.6	-5.4	3.4	.	-0.2	2.4
CC(Sc1nnc(-c2ccco2)o1)C(=O)Nc1ccc(OC(F)F)cc1 (stereo not given)	.	0.4	.	-4.0	.	.	0.3	3.6
O=C(Nc1cccc(Cl)c1)c1cccnn1	-12.2	-1.2	-1.3	-2.0	-3.4	-3.2%	-1.1	0.0
CC(=O)C1=C(C)Nc2ncnn2C1c1ccc(Cl)cc1Cl (stereo not given)	-14.5	.	1.8	-3.3	-7.6	-10.4%	0.5	-1.8
COC(=O)c1ccccc1NC(=O)CSc1nnc(-c2ccoc2C)n1C	9.1	.	6.7	-1.6	-19.6	-0.7%	-1.2	0.3
O=C(COC(=O)c1cccc([N+](=O)[O-])c1)Nc1ncc(Br)s1	.	-5.5	.	0.4	.	1.2%	-0.3	-2.3
CCOC(=O)c1c(S(=O)(=O)NCC(=O)Nc2cccc(F)c2)c(C)n(C)c1C	2.1	0.1	5.1	-0.8	6.6	-4.1%	-0.6	-3.8
NS(=O)(=O)c1cccc(NC(=O)COC(=O)CN2C(=O)c3ccccc3C2=O)c1	.	-1.7	.	-0.9	.	-15.4%	-0.1	3.7
Cn1cccc1C(=O)Nc1nc(-c2ccccn2)cs1	65.5*	.	3.6	52.1	?	3.3%	-7.7	4.5
CCCCOP(=O)(c1ccc(N(C)C)cc1)C(O)c1ccc(N(C)C)cc1 (stereo not given)	-2.7	-1.2	-2.4	-2.9	8.2	5.4%	-0.3	4.1
O=C(Nc1nccs1)c1cc(-c2ccccn2)nc2c(Cl)cccc12	-18.2	0.1	4.0	4.4	4.0	.	2.9	-2.2

# Next records.
Molecule	T cruzi inh	MLL AF4-AF9 inh	RanGTP-Impb inh	Beta apoptosis	Calb FLC	Vif A3G	A1 inh	LANA-H2B inh
N#Cc1ccc(C(=O)OCC(=O)Nc2ccc(N3CCOCC3)cc2)cc1	-10.9	0.9	3.7	-5.1	-0.6	12.5%	0.0	0.6
CCN(CC)C(=O)c1cn(C)c(=O)c2cc(OC)c(OC)cc12	1.0	.	6.8	-7.3	-6.0	-4.3%	0.7	2.9
Nc1nc(SCC(=O)Nc2cc(S(=O)(=O)N3CCOCC3)ccc2Cl)n[nH]1	-10.0	-2.1	3.0	0.8	0.1	-6.6%	0.4	-1.7
O=c1[nH]nc(SCCS(=O)(=O)c2ccc(F)cc2)n1-c1ccccc1	-14.6	1.5	-3.1	5.4	2.3	-2.1%	0.8	-4.5
CCC(=O)c1cn([C@@H](CCC(OC)OC)CC(=O)OC(C)(C)C)cc1CC	-12.9	-5.4	-0.2	-1.7	-4.5	.	1.3	2.2
CC(=O)N(c1ccccc1)c1nnc(-c2cnc(C)cn2)s1	-10.1	-0.7	-2.3	0.1	-5.6	.	-1.1	1.7
O=Cc1c[nH]c2ncccc12	16.1	1.1	1.9	-5.8	0.2	-1.6%	0.4	3.1
